GLA inh pH 4.5: qHTS Assay for Inhibitors of Human alpha-Galactosidase at pH 4.5; purified enzyme, 4-MU-alpha-Gal fluorescence, pH 4.5; activity change, negative = inhibition, % at 105 µM; 230,000 tested, under 10 active; inconclusive = small, poorly fitted or top-dose-only inhibition, or a rising curve; inactive = flat fitted curve, though single readings scatter; no compound was filed as active;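 further: 0% = full activity with enzyme and -100% = basal without enzyme; dose as in the result columns while the protocol names 77 µM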
Target sequence (P06280 whole entry, looked up): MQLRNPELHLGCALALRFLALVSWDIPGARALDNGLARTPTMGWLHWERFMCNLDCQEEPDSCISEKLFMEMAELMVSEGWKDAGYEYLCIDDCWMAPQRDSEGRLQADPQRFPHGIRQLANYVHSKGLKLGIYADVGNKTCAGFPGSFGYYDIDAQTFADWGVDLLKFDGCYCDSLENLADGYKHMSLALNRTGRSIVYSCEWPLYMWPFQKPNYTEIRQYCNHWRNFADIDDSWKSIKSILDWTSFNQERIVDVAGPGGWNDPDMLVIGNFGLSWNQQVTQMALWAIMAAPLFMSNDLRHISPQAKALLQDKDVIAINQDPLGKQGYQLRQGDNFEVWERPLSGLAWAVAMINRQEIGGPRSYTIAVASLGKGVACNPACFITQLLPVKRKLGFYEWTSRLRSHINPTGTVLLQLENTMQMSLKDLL
Rango complex inh: qHTS Assay for Inhibitors of Rango (Ran-regulated importin-beta cargo) - Importin beta complex formation. Importin subunit beta-1 (Homo sapiens), Q14974. Rango CFP/YFP FRET sensor + importin beta, 45 min. Potency, µM (highest dose often 92.2 µM), for the others: at the top dose inhibition of complex formation. 340,000 tested, 0.031% active; active = rising FRET ratio curve, often small or poorly fitted; inconclusive = mostly compound fluorescence or quenching in the first reads; inactive = flat curves in all reads;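 further: potency means the concentration at half of the fitted maximal effect; 0% = DMSO wells and 100% = buffer wells lacking importin beta; nearly all actives have a fitted effect of over 15% in size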
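FRET biosensor (snurportin 1 IBB flanked by EYFP and cerulean), 50 nM, with compound 5 min, then 0.125 microM importin beta in PBS, 1 mM DTT, 0.02% Tween-20, 0.1% BSA. CFP/YFP ratio read after 45 min at room temperature; pre-read flags interference.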
Rango release inh: qHTS Assay for Inhibitors of RanGTP induced Rango (Ran-regulated importin-beta cargo) - Importin beta complex dissociation. Snurportin-1 (Homo sapiens) + GTP-binding nuclear protein Ran (Homo sapiens) + Importin …. Biochemical FRET Rango-importin beta, RanGTP-induced dissociation. Potency, µM (top dose mostly 46.1 µM), for inactives: at the top dose activity change, negative = inhibition. 340,000 tested, 0.071% active. AID 540253, 2011; active means falling FRET ratio curve, often poorly fitted, with flat reads before Ran was added; inconclusive means other falling curves, or compound fluorescence or quenching; inactive means flat or rising ratio curve;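 further: potency means the concentration at half of the fitted maximal effect; % of control where 0% means no effect; nearly all actives have a fitted effect of over 45% in size; -100% = wells without RanGTP and RCC1; the record marks most hits as doubtful in a second field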
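Two FRET readings bracket the reaction: one 5 min after compound meets Rango–importin beta, another 45 min after RanGTP-RCC1 (0.6 uM Ran, 0.2 uM RCC1, 2 mM GTP) is added. Only the second defines inhibition.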
miR-21 FLuc: qHTS Assay for Modulators of miRNAs and/orActivators of miR-21; 340,000 tested, under 10 active; Potency, µM (titrated, usually from 38.3 µM), for inactives: at the top dose reporter change, positive = more light; AID 2288, 2010; HeLa miR-21 FLuc reporter, luciferase, 48 h; active = well fitted rising curve with a large enough effect; inconclusive = small, poorly fitted or top-dose-only effect; inactive = no such curve, though single readings can be large or run the other way;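 further: % of control where 0% means no effect; miR-21 action dims this reporter so a rising signal means less miR-21 action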
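Luminescence from a firefly luciferase reporter carrying a miR-21 binding site downstream, stably expressed under a CMV promoter in HeLa cells that make miR-21 endogenously, reports miRNA modulation after 48 h compound exposure up to approximately 40uM final.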
The depositor's hits bear a star; ? = inconclusive; nt = no result given; & = joins results of further samples. A portion of the library, so the mix of outcomes need not match the whole.

SMILES,GLA inh pH 4.5,Rango complex inh,Rango release inh,miR-21 FLuc
CCOC(=O)Nc1oc2ccccc2c(=O)c1C,-22,1.8%,14%,1%
CC(=O)c1ccc(S(=O)(=O)N2Cc3ccccc3CC2C(=O)O)cc1 (stereo unspecified),-4,?,-17%,-8%
O=C(NCc1ccco1)c1ccccc1-c1ccccc1,11,?,18%,-2%
COc1cc(C(=O)OCc2cc(=O)c(O)co2)ccc1OC(F)F,nt,-0.3%,-3%,-18%
CC(C)c1ccc(-c2nc(N3CCCCC3)[nH]c(=O)c2C#N)cc1,-2,-2.9%,19%,-7%
CCN(CCn1cccn1)C(=O)CC1C(=O)NCCN1CC1CCCCC1 (stereo unspecified),1,1.4%,1%,-1%
C=CCC1=C/C(=C\c2c(N)n3nc(CC(=O)N4CCCC4)sc3nc2=O)C=C(OC)C1=O,nt,?,?,0%
Cc1cnc(NC(=O)c2ccco2)s1,-3,-0.9%,-15%,-23%
CN(C)S(=O)(=O)N1CCN(C(=O)c2ccc3c(c2)OCO3)CC1,nt,-1.0%,10%,-2%
Cc1ccc(OCC(=O)N2CCC(N3CCCCCC3)CC2)cc1,-3,0.3%,-16%,-2%
O=C(CCl)Nc1c[nH]c(=O)[nH]c1=O,0,3.8%,-12%,14%
O=C1/C(=C/c2ccco2)N=C(N2CCCCC2)N1c1ccccc1,-8,?,?,-4%
C=CCn1c(C)cc(C2=NNC(=NC(C)(C)C)SC2)c1C,-6,-2.5%,-10%,?
O=C(COC(=O)c1cc(Br)c(Br)s1)NCCC1=CCCCC1,6,-0.4%,1%,-5%
COc1ccc(C(=O)C2CCN(C(=O)Nc3ccccc3C)CC2)cc1,nt,1.5%,-6%,4%

Next section:
SMILES,GLA inh pH 4.5,Rango complex inh,Rango release inh,miR-21 FLuc
C#CCOCCOCCOCCNc1nc(N2CCOCC2)nc(N2CCN(C(=O)CCCCCCCCCCNC(=O)Cn3cc(CCCCCN)nn3)CC2)n1,nt,-0.4%,-15%,nt
O=C(Nc1ccccc1)c1cc(S(=O)(=O)N2CCSCC2)ccc1Cl,-3,-0.3%,19%,-6%
N#C/C(=C/c1ccc(N2CCCCC2)o1)C(=O)Nc1ccc2ccccc2c1,-7,?,?,-20%
CC1(C)CC(=O)c2sc(NC(=O)CN3C(=O)CCC3=O)nc2C1,0,-3.9%,10%,3%
Cc1ccc(S(=O)(=O)N2C[C@@H]3[C@H]4CC[C@H](C4)[C@@H]3[C@@H](C)[C@H]2C#N)cc1,nt,0.5%,-12%,nt
COc1cccc(N2CCN(S(=O)(=O)c3ccc(-c4cnc(C5CC5)o4)cc3)CC2)c1,nt,-1.8%,1%,-7%&-10%
CC(OC(=O)c1cc2sccc2n1C)C(=O)NCc1ccc2c(c1)OCO2 (stereo unspecified),-9,-3.3%,2%,-4%
CCCn1c2ccccc2c2nnc(SCC(=O)Nc3cc(C)on3)nc21,-6,-0.5%,-12%,-4%
CCOC(=O)Cc1csc(NC(=O)CSc2nc(=O)[nH]c3c2CCC3)n1,nt,1.0%,-2%,nt
O=S(=O)(NCc1ccccc1)c1ccc2ccccc2c1,nt,-2.4%,7%,-18%
O=C(CC1C(=O)NCCN1Cc1ccccc1C(F)(F)F)NCCN1CCCCC1=O (stereo unspecified),nt,-0.2%,-7%,0%
N#CCCN(C(=O)COC(=O)c1cc(=O)[nH]c2ccccc12)c1ccccc1,nt,0.1%,-6%,nt
O=C(Nc1cccnc1)c1cccs1,-11,-0.4%,4%,28%
S=c1[nH]nc(COc2ccccc2)n1/N=C/c1c(Cl)cccc1Cl,nt,?,6%,-7%
CNc1nnc(Sc2ncccc2[N+](=O)[O-])s1,-7,2.2%,17%,-3%

Remaining list, next part.
SMILES,GLA inh pH 4.5,Rango complex inh,Rango release inh,miR-21 FLuc
COC(=O)c1c(NC(=O)CN2CCN(c3ccccc3)CC2)c2c(C)cccc2n1C,-3,0.1%,3%,-2%
Cc1ccc(OCC(=O)Nc2ccc3oc(=O)ccc3c2)cc1,nt,4.2%,6%,-7%
Cc1ccc2c(c1)S/C(=C\c1cccc[n+]1C)N2CCO,nt,-0.6%,7%,19%
Cc1ccc(CNC(=O)CCCC(=O)O)cc1,7,?,-2%,-3%
O=C(NNC(=O)c1cccc2ccccc12)c1ccc(-c2ccccc2)cc1,11,3.4%,4%,5%
CCn1cc(S(=O)(=O)N2CCc3ccccc3C2)cn1,nt,0.0%,11%,0%
CC(=O)NS(=O)(=O)c1ccc(NC(=O)c2cccc(S(=O)(=O)N3CCc4ccccc43)c2)cc1,1,-2.6%,-11%,0%
CNC(=O)CS(=O)CC(=O)Nc1cc(OC(C)C)c(Cl)cc1Cl (stereo unspecified),1,1.4%,45%,-2%
CSc1nsc(SCC(=O)Nc2ccccc2)n1,nt,-0.7%,0%,-16%
Cc1cccc(C)c1OCC(=O)Nc1cccc(NC(=O)c2ccco2)c1,2,2.2%,2%,21%
Cc1ccc(S(=O)(=O)Cn2nnnc2CN(Cc2ccco2)Cc2cccs2)cc1,-20,-2.2%,-16%,-4%
CC1(C)CC2CC(C)(CN2C(=O)c2ccc([N+](=O)[O-])cc2)C1 (stereo unspecified),6,-0.3%,-10%,-1%
CCN(C(=O)COC(=O)c1nn(-c2ccccc2)c(=O)c2ccccc12)C1CCS(=O)(=O)C1 (stereo unspecified),5,-4.5%,-14%,0%
COc1ccc(OC)c(NC(=O)COC(=O)CCC2CCCC2)c1,nt,0.4%,-19%,nt
Cc1cc(C(=O)Nc2ccc(N3CCOCC3)c(Cl)c2)c(C)o1,-13,4.1%,?,-39%

Shown with values under each structure: part of the list above.
Second line of a record – GLA inh pH 4.5	Rango complex inh	Rango release inh	miR-21 FLuc
> Cc1ccc(CNC(=O)CCCC(=O)O)cc1
→ 7	?	-2%	-3%
> O=C(NNC(=O)c1cccc2ccccc12)c1ccc(-c2ccccc2)cc1
→ 11	3.4%	4%	5%
> CCn1cc(S(=O)(=O)N2CCc3ccccc3C2)cn1
→ nt	0.0%	11%	0%
> CC(=O)NS(=O)(=O)c1ccc(NC(=O)c2cccc(S(=O)(=O)N3CCc4ccccc43)c2)cc1
→ 1	-2.6%	-11%	0%
> CNC(=O)CS(=O)CC(=O)Nc1cc(OC(C)C)c(Cl)cc1Cl (stereo unspecified)
→ 1	1.4%	45%	-2%
> CSc1nsc(SCC(=O)Nc2ccccc2)n1
→ nt	-0.7%	0%	-16%
> Cc1cccc(C)c1OCC(=O)Nc1cccc(NC(=O)c2ccco2)c1
→ 2	2.2%	2%	21%
> Cc1ccc(S(=O)(=O)Cn2nnnc2CN(Cc2ccco2)Cc2cccs2)cc1
→ -20	-2.2%	-16%	-4%
> CC1(C)CC2CC(C)(CN2C(=O)c2ccc([N+](=O)[O-])cc2)C1 (stereo unspecified)
→ 6	-0.3%	-10%	-1%
> CCN(C(=O)COC(=O)c1nn(-c2ccccc2)c(=O)c2ccccc12)C1CCS(=O)(=O)C1 (stereo unspecified)
→ 5	-4.5%	-14%	0%
> COc1ccc(OC)c(NC(=O)COC(=O)CCC2CCCC2)c1
→ nt	0.4%	-19%	nt
> Cc1cc(C(=O)Nc2ccc(N3CCOCC3)c(Cl)c2)c(C)o1
→ -13	4.1%	?	-39%

Next section
SMILES,GLA inh pH 4.5,Rango complex inh,Rango release inh,miR-21 FLuc
CC(NC(=O)CN(C)S(=O)(=O)c1ccc2c(c1)c(=O)n(C)c(=O)n2C)c1ccccc1 (stereo unspecified),nt,1.6%,-6%,1%&0%
Cc1ccc(Cl)cc1N1CCN(C(CC(C)C)c2nnnn2CC2CCCO2)CC1 (stereo unspecified),-2,?,10%,-3%
Cn1cc([N+](=O)[O-])c(C(=O)Nc2ccc(-c3nc4ccccc4[nH]3)cc2)n1,-5,-1.2%,20%,-50%
CCCCNC(=O)CCn1ccc2cc(S(=O)(=O)N3CCCC3)ccc21,nt,0.0%,-10%,0%
CCc1ccccc1NC(=O)CCN1C(=O)c2ccccc2C1=O,-2,-1.2%,?,0%
CCCN(CCC)c1nc2ccccc2nc1C(C#N)C(=O)OC(C)COC (stereo unspecified),-11,?,?,-26%
Oc1ccccc1/C=N/Nc1nc2ccccc2o1,-4,-1.5%,0%,1%
Cc1ccc(CNC(=O)CCc2c(C)nc3c(c(C)nn3-c3ccc(C)cc3)c2C)cc1,3,-2.3%,-13%,-2%
N/C(=N\OC(=O)CCCOc1ccccc1)c1ccccn1,7,-0.4%,11%,-43%
CCN(CC)CCCNc1nc(N)c([N+](=O)[O-])c(NCCO)n1,-6,-4.5%,?,1%
CC(=O)c1sc(N)nc1C,nt,-1.2%,1%,nt
O=C(O)C1C2C=CC(C2)C1C(=O)OCc1ccccc1 (stereo unspecified),-10,-3.2%,-1%,-5%
COc1cccc(-n2c(-c3ccc4[nH]c(C)c(C)c4c3)n[nH]c2=S)c1,2,-2.3%,5%,-30%
COc1ccc2c(c1)C(=O)N(c1ccccc1OC)C(=O)C2(C)C,3,0.2%,-6%,-31%
O=C(CCc1nc2cccnc2n1Cc1ccccc1)N1CCOCC1,-3,5.2%,-14%,0%

Additional compounds.
SMILES,GLA inh pH 4.5,Rango complex inh,Rango release inh,miR-21 FLuc
O=C(COc1ccccc1Cl)Nc1ccc2c(c1)OCO2,nt,2.2%,18%,-72%
O=C(CNC(=O)c1ccc(Cl)cc1)OC1CCOC1=O (stereo unspecified),0,?,-13%,1%
O=C(O)c1ccc(NC(=S)NC(=O)c2cncc(Br)c2)cc1,nt,3.1%,-4%,17%
O=C(NNC(=O)c1cccc2ccccc12)c1ccc(Cl)cc1,nt,7.2%,-17%,nt
CCN1C(=O)c2ccccc2S(=O)(=O)c2ccc(C(=O)NCCCN(CC(C)C)CC(C)C)cc21,nt,1.7%,2%,-2%
COc1ccc(C(C)=O)cc1CSCc1cc(C(C)=O)ccc1OC,nt,-1.0%,5%,-7%
CN(Cc1ccc2c(c1)OCCO2)C(=O)CN1C(=O)NC2(CCCCC2)C1=O,nt,0.0%,13%,-5%
Cc1nn(-c2ccccc2)c(Cl)c1/C=N/NC(=O)C1COc2ccccc2O1 (stereo unspecified),-20,nt,nt,-3%
CCN(C[C@H]1N[C@@](Cc2ccccc2)(C(=O)OC)[C@H]2C(=O)N(Cc3ccccc3)C(=O)[C@@H]12)C(=O)c1ccc(C)cc1,nt,-0.8%,10%,nt
COc1ccc(Br)cc1-c1nc2c(c(=O)[nH]c(=O)n2Cc2ccccc2)n1C,nt,-0.1%,9%,-3%
O=c1[nH]cnc(O)c1N=Nc1ccccc1,nt,-3.9%,0%,-27%
O=C(N1CCOCC1)C12CC3CC(C1)CC(n1cnc(Cl)n1)(C3)C2,5,3.2%,14%,-3%
COc1ccccc1CNC(c1ccccc1)c1ccccc1,nt,4.6%,-5%,-4%
O=C(N/N=C/c1cc([N+](=O)[O-])cc(Br)c1O)C12CC3CCC(CC(C3)C1)C2,-5,3.0%,29%,-1%
CN(C)C(=O)CSc1nnc(C23CC4CC(CC(C4)C2)C3)o1,-10,-2.4%,-7%,-25%

Next section
SMILES,GLA inh pH 4.5,Rango complex inh,Rango release inh,miR-21 FLuc
Cc1cc(NC(=O)CSc2cn(CCNC(=O)c3ccccc3)c3ccccc23)no1,-1,?,10%,0%
COc1ccc(-n2c(SCC(N)=O)nc3nc4c(cc3c2=O)COC(C)(C)C4)cc1,-3,-0.7%,0%,-2%
COc1ccc(NC(=O)CN2CCN(C3c4ccccc4-c4ccccc43)CC2)c(OC)c1,?,-0.8%,9%,1%
COc1ccc(C(=O)Nc2nnc(S(=O)(=O)N(C)Cc3ccc(F)cc3)s2)cc1OC,nt,0.0%,4%,-7%
COc1ccc(Nc2nc(-c3cccnc3)cs2)c(OC)c1,nt,0.7%,0%,-32%

Bioassay records deposited in PubChem BioAssay by National Center for Advancing Translational Sciences (NCATS).
